# Bioassay records as filed in PubChem BioAssay.
# PMP22 txn: modulators of PMP22 gene transcription in S16 Schwann cells | Potency, µM (top dose mostly 57.5 µM), without a hit: top-dose activity change, negative = inhibition, actives largely listed as inhibitors | 43,000 compounds, 2% hits | S16 Pmp22-F2sN Schwann cells (luciferase reporters placed in the Pmp22 gene), FLuc/NLuc coincidence luminescence, 24 h; active = clear falling dose curves in both reporters; inconclusive = both reporters move, but less clearly or upward; inactive = either reporter flat; the % is the NLuc reporter signal; note: % is set by controls: 0 for no effect and ±100 for the full control effect; some results filed as inactive show a strong effect at the top dose
#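 Schwann cells carrying the coincidence reporter were exposed to library compounds for 24 h at 37C, then lysed and read for FLuc and, after quenching, NLuc luminescence on a CCD imager.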
# HTT promoter inh: inhibitors of huntingtin promoter activity. HEK293 HTT promoter firefly luciferase reporter (activity 0% = vehicle and -100% = no light), 24 h. Potency, µM (series often up to 57.5 µM), inactives show at the top dose activity change, negative = inhibition, hits mostly inhibitors. 48,000 compounds, 0.93% hits; active = well fitted inhibition curve with a large enough effect; inconclusive = small, poorly fitted or top-dose-only effect; inactive = no such curve, though single readings can be large or run the other way; note: nearly all actives have a fitted effect of over 50% in size
#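 HEK293 cells carrying firefly luciferase reporters were seeded at 2,500 per well in Opti-MEM and cultured for 24 h. They were then treated with compounds at up to 57.5 uM final for 24 h at 37 degrees C before Dual-Glo luminescence readout.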
# An asterisk follows results filed as active; ? = inconclusive; / = not tested or not shown; [ ] = remark or other dose. Potency is the fitted concentration of half-maximal effect.
mol | PMP22 txn | HTT promoter inh
Cc1cccc(N2CCN(C(=O)c3cc4ccc5cccnc5c4[nH]3)CC2C)c1 (stereo not drawn) | -7% | -27%
CCc1ccc(-c2[nH]nc3nc(-c4ccc(OC)cc4)cc(C(=O)NCCCOC)c23)cc1 | ? | 12%
Cc1csc2nc(COC(=O)c3ccccc3NC(=O)c3ccccc3Cl)cc(=O)n12 | ? | ?
CCOC(=O)c1c(NC(=O)COc2cccc(C)c2C)sc(C(C)=O)c1C | 1% | -5%
CC1CCN(C(=O)CSc2nnc(-c3ccccc3Cl)o2)CC1 | -8% | 5%
COc1ccc(CCNC(=O)c2ccc(Cn3c(=O)c4ccccc4n(CC(=O)C(C)(C)C)c3=O)cc2)cc1OC | ? | -16%
CN[C@H](CC(C)C)C(=O)N[C@H]1C(=O)N[C@@H](CC(N)=O)C(=O)N[C@@H]2C(=O)N[C@H]3C(=O)N[C@H](C(=O)N[C@H](C(=O)O)c4cc(O)cc(O)c4-c4cc3ccc4O)[C@H](O)c3ccc(c(Cl)c3)Oc3cc2cc(c3O[C@@H]2O[C@H](CO)[C@@H](O)[C@H](O)[C@@H]2O[C@H]2C[C@](C)(N)[C@H](O)[C@H](C)O2)Oc2ccc(cc2Cl)[C@H]1O | / | -4%
CC(=O)N1CCc2c(sc3c2c(=O)n(-c2ccccc2)c(=O)n3CC(=O)Nc2cccc(C)c2)C1 | -12% | -11%
O=C1CC2(CCCC2)CC(=O)N1CCNCC1COc2ccccc2O1 (stereo not drawn) | / | 4%
COc1cccc(C(=O)NCC(c2ccc(N(C)C)cc2)N2CCc3ccccc32)c1 (stereo not drawn) | ? | -3%
O=C(COc1ccc(Cl)cc1)N1CCN(Cc2ccc3c(c2)OCO3)CC1 | / | -17%
CCOc1ccccc1NC(=O)C(=O)NCC(c1cccnc1)N1CCN(c2ccccc2)CC1 (stereo not drawn) | -25% | ?
CCN(CC)CCN(C(=O)c1ccco1)c1nc2ccc(Br)cc2s1 | ? | 6%
CCOC(=O)c1c(C)oc2ncnc(Nc3cccc(C(F)(F)F)c3)c12 | -2% | -13%
CN1CCc2c(sc3c2C(=O)NC(c2ccc(OC(=O)c4ccccc4)cc2)N3)C1 (stereo not drawn) | ? | 87%[activator]
CCOc1ccccc1CNc1ncnc2c1nc1n2CCCC1 | ? | -28%
Cc1ccc(SCc2nc(-c3ccc(C(=O)NCc4ccccc4Cl)cc3)oc2C)cc1 | -22% | ?
COc1cc(-c2noc(CN3CCN(c4ccccc4)CC3)n2)cc(OC)c1OC | -4% | 9%
Cc1ccc2c(c1)c1c(c(=O)n(-c3ccccc3C)c(=O)n1CC(=O)NCc1ccccc1)n2C | ? | -8%
C[C@@]12O[C@@H](C[C@]1(O)CO)n1c3ccccc3c3c4c(c5c6ccccc6n2c5c31)CNC4=O | / | ?
COc1ccc(-c2cc(C(=O)Oc3ccccc3)c3cc(C)ccc3n2)cc1 | ? | 43%[activator]
Nc1c(C(=O)Nc2ccccc2)sc2nc3c(cc12)CN(Cc1ccccc1)CC3 | -32% | -4%
COc1ccc(NC(=O)Cn2c(=O)n(-c3ccc(OC)cc3)c(=O)c3ccc(C(=O)NCc4ccc(C)cc4)cc32)cc1 | -33% | ?
COc1ccc(-n2ncc(C(=O)N3CCN(C4CCCCC4)CC3)c2C2CCN(C(=O)OC(C)(C)C)CC2)cc1 | ? | 2%
Cc1cc(C=c2sc3nc4ccccc4n3c2=O)c(C)n1-c1ccccc1 | / | ?
CCOC(=O)c1c(Nc2ccc(O)cc2)nnc(-c2ccccc2)c1-c1ccccc1 | -15% | -17%
Cc1nc2sc(C(N)=O)c(N)c2c(-c2ccc(Br)cc2)c1C(=O)Nc1ccc(Cl)cc1 | ? | ?
CCCN(C(=O)NCc1noc2ccc(C)cc12)c1ccc(Cl)c(Cl)c1 | 4% | -6%
Cn1c(SCC(=O)Nc2nc3ccccc3s2)ncc(C(=O)Nc2ccc(F)cc2)c1=O | -35% | 9%
Nc1c(-c2nc(-c3ccc(Cl)cc3)no2)nnn1-c1ccc(C(F)(F)F)c(Cl)c1 | 5% | -7%
COc1ccc(NC(=O)c2ccco2)cc1NC(=O)c1ccc(C)c(C)c1 | -16% | -17%
C#CCOc1ccc(-c2nnc(Nc3cccc(C)c3)c3ccccc23)cc1 | ? | ?
Cc1cc(C)cc(NS(=O)(=O)c2ccc(-n3cccn3)cc2)c1 | ? | ?
CCS(=O)(=O)c1ncc(N(Cc2cccc(F)c2)Cc2ccco2)c(C(=O)Nc2ccccc2Cl)n1 | ? | 12%
CN1C(=O)C[C@H](C(=O)N[C@@H](Cc2cnc[nH]2)C(=O)N2CCC[C@@H]2C(N)=O)NC1=O | / | 9%
CCOc1ccc(NC(=O)Cn2c(=O)c(CNc3ccccc3)cc3cc4c(cc32)OCCO4)cc1 | ? | -25%
CCc1c(C)sc2c1CCN(Cc1ccccc1)C2c1ccccc1 (stereo not drawn) | 5.7µM* | ?
Cn1c(=O)c2c(nc(NCc3ccccc3)n2Cc2ccccc2Cl)n(C)c1=O | -3% | -12%
COc1ccc(NC(=O)N(Cc2nnc3n2CCCCC3)c2ccc(OC)c(Cl)c2)cc1 | 8% | -1%
Cc1ccc(Cl)cc1N1CCN(C(=O)C2CCCN(S(=O)(=O)c3ccc(Br)s3)C2)CC1 (stereo not drawn) | ? | -30%
Cc1csc2nc(CCNS(=O)(=O)c3ccccc3)cn12 | 3% | 7%
CCOc1ccccc1NC(=O)c1cnn2c(C(F)F)cc(-c3ccccc3)nc12 | 11µM* | ?
CCCSc1nc2c(c(=O)[nH]1)C(c1ccc(F)cc1F)CC(=O)N2 (stereo not drawn) | 0% | -18%
COc1ccc(-c2ccc(CCC(=O)O)n2-c2ccccc2O)cc1 | -54% | 22%
Cc1cc(Nc2cccc(Cl)c2)nc2ccc(NC(=O)Cc3cccc(C(F)(F)F)c3)cc12 | ? | ?
Cc1sc2ncn(CC(=O)N(C)c3ccc(C(C)C)cc3)c(=O)c2c1S(=O)(=O)N1CCC(C)CC1 | ? | -20%
O=C(Nc1cc(Cl)cc2c1[nH]c1cnccc12)c1cccnc1 | / | 1%
Cc1cccc(NC(=O)C(=O)NCC(c2ccc3c(c2)OCO3)N2CCN(C)CC2)c1C (stereo not drawn) | 31% | -11%
CCOc1ccc(-c2c(C)nn3c(-c4ccccc4)c(C(=O)NCCOC)cnc23)cc1OCC | -29% | ?
Cc1cccc(NC(=O)Nc2cccs2)c1C | -12% | -2%

# (continued)
Compound	PMP22 txn	HTT promoter inh
Cc1ccc(CNC(=O)c2ccc3c(c2)CCN3S(=O)(=O)c2ccccc2)cc1	-2%	?
COc1ccccc1CSc1nc2n(n1)C(c1ccccc1)C(C(=O)Nc1ccc(C)cc1)=C(C)N2 (stereo not drawn)	?	-27%
COc1ccc(NC(=O)C2CCN(C3=NS(=O)(=O)C(c4ccc(C)c(C)c4)=C3C)CC2)c(OC)c1	-17%	-13%
Cc1ccccc1CNC(=O)c1ccc(Cn2c(SCc3cccc(F)c3)nc3cccnc32)cc1	?	?
CCOc1ccc(NC(=O)/C(C#N)=C\c2ccc(-c3ccc(Cl)cc3)o2)cc1	?	-4%
CS(=O)(=O)N1CCCc2cc(C(=O)Nc3cccc(C(F)(F)F)c3)ccc21	-90%	?
COc1ccc(CCNC(=O)Cn2nc(C)c3c(C)n(-c4ccc(C)cc4)nc3c2=O)c(OC)c1	?	2.5µM*
COc1ccc(Cl)cc1NC(=O)NCCc1c(C)nn(C)c1C	4%	-13%
CCOC(=O)c1c(Nc2ccc(OCC)cc2)nnc(-c2ccccc2)c1-c1ccccc1	?	?
Cc1ccc(CNC(=O)c2nn(C)c3c2CSc2ccc(C)cc2-3)cc1	?	-29%
O=C(CSc1cn(CC(=O)N2CCCCC2)c2ccccc12)NCc1ccc(F)cc1	-9%	-15%
CCOC(=O)c1c(C)oc2ccc(N(C(=O)Oc3ccccc3)S(=O)(=O)c3ccc(CC)cc3)cc12	?	-25%
Cc1cc(C)c(NC(=O)CN2C(=O)C3(SCC(=O)N3c3ccc(F)cc3)c3ccccc32)c(C)c1 (stereo not drawn)	3%	?
CC1=Nc2cc(C(=O)NCCc3ccc(Cl)cc3)ccc2Sc2c(C)ccc(C)c21	7.8µM*	?
COc1ccc(-c2c(C)c3ccc(O)c(CN4CCCCC4C)c3oc2=O)cc1OC (stereo not drawn)	-37%	-16%
CC(C)Oc1ccc(CNC(=O)c2ccc3nc(SCc4ccc(F)cc4)n(C)c3c2)cc1	-19%	?
CC(=O)Nc1ccc(NC(=O)CN2C(=O)CN(C)C(=O)c3ccccc32)cc1	-12%	7%
Cc1ccc(NC(=O)c2cc(S(=O)(=O)N3CCC(C)CC3)cn2C)cc1Cl	?	-11%
CCCc1nn2c(=O)cc(COC(=O)c3ccccc3NC(=O)c3cccs3)nc2s1	-9%	18%
COCCCNC(=O)c1cc2n(n1)CCCN(Cc1ccc(C)cc1)C2=O	-8%	-1%
O=C(CSc1nnc(CNC(=O)c2ccccc2F)n1-c1ccccc1)Nc1ccccc1F	12%	-16%
COc1cc(-c2nc(SCC(=O)Nc3ccc(C)cc3)c(-c3ccc(F)cc3)[nH]2)cc(OC)c1OC	?	?
CS(=O)c1ccc(-c2nc(-c3ccc(F)cc3)c(-c3ccncc3)[nH]2)cc1 (stereo not drawn)	/	-9%[116 µM]
CN(C)c1oc(/C=C/c2ccc(F)cc2)nc1C#N	-12%	75%[activator]
CCN1CCN(C(c2ccccc2)c2sc3nc(-c4ccco4)nn3c2O)CC1 (stereo not drawn)	-5%	8%
CCN(CCCNC(=O)c1cc2c(=O)n(CC)c3ccccc3c2s1)c1ccccc1	?	-11%
COc1cc(OC)cc(C(=O)Nc2c(C(=O)Nc3ccc(F)cc3)oc3ccccc23)c1	?	4%
O=C(Cn1c(=O)n(Cc2ccc(C(=O)NCc3ccccc3Cl)cc2)c(=O)c2ccccc21)Nc1ccc(F)c(Cl)c1	-16%	-7%
Cc1cc(C)c(S(=O)(=O)NCC(c2ccc(N(C)C)cc2)N2CCc3ccccc32)c(C)c1 (stereo not drawn)	?	?
CCc1ccc(NC(=O)C2CCCN(S(=O)(=O)c3ccc4c(c3)oc(=O)n4C)C2)cc1 (stereo not drawn)	-28%	-17%
Cc1ccc(NC(=O)CSc2nnc3scc(-c4ccccc4)n23)cc1	-5%	-17%
COc1ccc(OC)c(CNC(=O)c2ccc(NC(=O)c3nsc4ccccc34)cc2)c1	-9%	?
Cc1cc(C)cc(NC(=O)Cn2cc(S(=O)(=O)NC(C)(C)C)c(S(=O)(=O)NC(C)(C)C)c2)c1	?	?
CC(C)CC(=O)N(Cc1ccccc1)S(=O)(=O)c1ccc2c(c1)oc(=O)n2C	-6%	-26%
Cc1cc(=O)[nH]c2nnc(SCC(N)=O)n12	-10%	-9%
CCOC(=O)C1=C(C)NC(C)=C(C(=O)OC)C1c1cccc([N+](=O)[O-])c1 (stereo not drawn)	/	-14%
Cc1cc(C)c(Cn2c3ccccc3c3cnn(CC(=O)NCc4ccc(Cl)cc4)c(=O)c32)c(C)c1	?	-19%
CCOc1ccc(-c2nc(CNC(=O)Nc3ccccc3)c(C)o2)cc1	3%	-13%
Cc1ccc(Cn2cc(CCC(=O)NCC(C)c3ccccc3)c3ccccc32)cc1 (stereo not drawn)	?	?
CCN(C(=O)Cn1cnc2sc(C)c(S(=O)(=O)N3CCN(c4ncccn4)CC3)c2c1=O)c1ccccc1F	-32%	-14%
CCOc1ccccc1NC(=O)CN(CCc1ccccc1)S(=O)(=O)c1ccc(C)cc1	?	?
CCCN(CCC)CCCNC(=O)Cn1cnc2sc(C)c(S(=O)(=O)N3CCC(C)CC3)c2c1=O	-7%	-9%
CCOC(=O)c1sc2ncn(CC(=O)Nc3cc(C)cc(C)c3)c(=O)c2c1C	?	-13%
COc1cc(C(=O)NS(=O)(=O)c2ccccc2C)ccc1Cc1cn(C)c2ccc(NC(=O)OC3CCCC3)cc12	/	?
Cc1ccc(CNC(=O)c2ccc(NC(=O)c3nsc4ccccc34)cc2)cc1	-16%	?
